# Screening results: PubChem, National Center for Advancing Translational Sciences (NCATS)
# HPGD block: HPGD (human) dehydrogenase inhibition | hit rate 4.3% among 150,000 | P15428 | Potency, µM, for inactives: at the top dose activity change, negative = inhibition, most hits filed as inhibitors | AID 894 | purified HPGD, NADH fluorescence kinetic, PGE2 substrate; active = well fitted inhibition curve with a large enough effect (not every such curve was filed as active); inconclusive = small, poorly fitted or top-dose-only effect, or another doubt; inactive = no such curve, though single readings can be large or run the other way;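 further: top concentration of the series not given in the record; plate controls included wells without enzyme; inactives centre near -10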
# Target sequence (P15428 whole entry, looked up): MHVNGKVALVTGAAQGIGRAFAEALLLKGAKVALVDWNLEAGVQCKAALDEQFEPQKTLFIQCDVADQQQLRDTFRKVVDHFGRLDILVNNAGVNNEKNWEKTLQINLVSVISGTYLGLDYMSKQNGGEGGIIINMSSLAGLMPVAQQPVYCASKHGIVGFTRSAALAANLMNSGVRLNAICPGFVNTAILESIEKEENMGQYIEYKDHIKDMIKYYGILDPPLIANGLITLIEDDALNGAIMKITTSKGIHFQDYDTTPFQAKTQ
#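 20 nM HPGD preincubated 15 min at room temperature with compound in 50 mM Tris-HCl pH 8, 0.01% Tween 20. Started with 1 mM NAD+ and 30 uM prostaglandin E2; NADH fluorescence (360/450 nm) read 5 times over 30-s intervals, last minus first.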
# The depositor's hits bear a star; ? = inconclusive; & = joins results of further samples. On the % scale 0 is the no-effect control and ±100 the full control effect; potency means the concentration at half of the fitted maximal effect.
SMILES,HPGD block
COc1cccc(/C=N/n2nnnc2N)c1OCc1ccccc1Cl,?
CCOC(=O)C1=C(C)OC(N)=C(C#N)C1c1cncc(-c2ccc(F)cc2)c1 (centres undefined),-9.8%
COc1ccc(C2=CC(c3ccc(OC)c(OC)c3)NC(=S)N2)cc1 (centres undefined),?
CCOc1cccc(/C(O)=C2/C(=O)C(=O)N(Cc3cccnc3)C2c2ccco2)c1 (centres undefined),-5.7%
COc1ccc(Cc2nnc(N)s2)cc1,28.2µM*
CCc1ccc(NC(=S)NC(=O)CC(C)C)cc1,?
O=C(OCCOc1ccc(Br)cc1)c1cnccn1,-11.4%
O=C(CN1C(=O)CSc2ccccc21)Nc1ccc2c(c1)OCCO2,-11.2%
COc1ccc(OC)c(NC(=O)COc2ccc(S(=O)(=O)NC(C)C)cc2)c1,3.2%
O=C1CC(=O)N2N=C(c3ccc([N+](=O)[O-])cc3)SC2=N1,-7.7%
S=C(NCCCc1ccccc1)Nc1ccccc1Cl,-3.0%
CCOc1ccc(-n2c(SCc3nc(-c4ccc(C)cc4)no3)nnc2-c2ccncc2)cc1,-25.8%
Cc1cc(N(C)C)ccc1[N+](=O)[O-],-18.7%
O=C(Oc1ccccc1)N1CCN(c2ccc(F)cc2)CC1,-13.2%
CCCOC(=O)c1ccc(NC(=O)C2CCCO2)cc1 (centres undefined),?
CCOC(=O)c1ccc(-n2[nH]c(-c3ccccc3)cc2=O)cc1,-23.3%
O=C(Nc1cccc(Cl)c1Cl)c1cc(S(=O)(=O)NCCc2ccccc2)ccc1F,-22.0%
Cc1ccccc1-c1nnc(SCCOc2ccc3c(C)cc(=O)oc3c2)o1,?
Cc1cc(C)nc(-n2nc(C)cc2Nc2ccccc2)n1,-5.8%
Clc1ccc(COc2ccccn2)cc1Cl,-4.8%
CC(=O)N(C)c1ccc(NC(=O)C(F)(F)F)cc1,-2.2%
Cc1ccc(NCc2nnc(SCCN3CCCCC3)n2CC2CCCO2)cc1Cl (centres undefined),-2.1%
CN(C)c1ccc([N+](=O)[O-])cc1C(=O)O,-17.0%
COc1ccc2c(CCNC(=O)c3ccco3)c[nH]c2c1,?
O=C(Nc1cccnc1)c1ccc2c(c1)OCO2,-4.3%
O=C(OCc1nc2scc(-c3ccccc3)c2c(=O)[nH]1)c1cc([N+](=O)[O-])ccc1Cl,-7.7%
Cc1ccccc1S(=O)(=O)Nc1nc2ccccc2nc1N1CCOCC1,?
C=C(C)C1CC=C(C)/C(=N/NC(=O)CNc2ccc(OCC)cc2)C1 (centres undefined),1.2%
COC(=O)c1ccc(NC(=S)NC2CCCCC2C)cc1 (centres undefined),-21.3%
CC(C(=O)Nc1ccc2c(c1)OCCO2)N1CCN(C(=O)c2ccco2)CC1 (centres undefined),-4.9%
COc1cccc(N2C(C(C)=O)=NN(c3ccccc3)C2c2ccc(N3CCOCC3)cc2)c1 (centres undefined),-6.9%
COc1ccccc1N1CCN(C(=O)Nc2ccc([N+](=O)[O-])cc2)CC1,-9.6%
Cc1cc(C)c2nc(NNC(=O)c3ccc(S(=O)(=O)N4CCc5ccccc5C4)cc3)sc2c1,-10.4%
Cc1nn(-c2ccccc2)c(C)c1/C=N/O,-7.3%
COc1ccc(NC(=O)c2sccc2C)c([N+](=O)[O-])c1,-20.4%
CCCNC(=O)c1cc(-c2ccc(Br)cc2)on1,-25.8%
O=C(N/C(=C\c1cccc([N+](=O)[O-])c1)C(=O)N1CCCCC1)c1cccs1,-4.5%
CCOc1ccc(-c2nnn(CC(=O)Nc3ccccc3OC)n2)cc1OCC,-26.5%
COc1ccc(NC(=O)CSc2ccccn2)cc1,25.1µM*
COc1ccc2c(c1)CCc1c(C(=O)N3CCc4ccccc4C3)noc1-2,17.8µM*
Cc1nnc(SCC(=O)n2c3c(c4ccccc42)CCCC3)s1,-11.8%
c1ccc(-c2ccc(C3=Nn4c(Cn5nnc6ccccc65)nnc4SC3)cc2)cc1,17.8µM*
Cc1ccc(S(=O)(=O)N2CCCCC2)cc1NC(=O)C1CC(=O)N(Cc2ccccc2)C1 (centres undefined),-13.7%
COc1ccc(C2=CC3=C(Br)C(=O)C(C)(OC(=O)c4ccc(Cl)nc4)C(=O)C3=CO2)cc1 (centres undefined),?
CCOC(=O)C1(C)Oc2ccccc2C(C(=O)OC)=C1C(=O)OC (centres undefined),-12.9%
Cc1oc(-c2ccccc2)cc1C(=O)Nc1ccc(N(C)C)cc1,-7.4%
Cc1[nH]n(-c2ccccc2)c(=O)c1/C=N/O,-7.5%
Cc1occc1C(=O)NCc1cccs1,?
Cc1ccc(N(CC(=O)N2CC(=O)Nc3ccccc32)S(=O)(=O)c2ccc3c(c2)OCCO3)cc1,-13.7%
CCOC(=O)/C(C#N)=C\C=C1C=CN(C)C=C1,-19.4%
Cn1nc(C(C)(C)C)c([N+](=O)[O-])c1C(=O)NCCO,-5.5%
CCC1=C/C(=C/N(C)c2ccccc2)C(=O)S1,22.4µM*
CCOC(=O)c1nn(-c2sc(C(=O)OC)c(C)c2C(=O)OC)cc1O,-21.4%
O=C(COC(=O)CNS(=O)(=O)c1c(Cl)cccc1Cl)Nc1ccccc1Sc1ccccc1,-5.2%
O=C(Cc1cccs1)N(c1ccc(Cl)cc1)C1C=CS(=O)(=O)C1 (centres undefined),-8.4%
O=C(COC(=O)c1ccc2c(c1)C(=O)N(c1cccc3ncccc13)C2=O)c1ccc(Cl)cc1,-13.9%
O=c1c2[nH]c3ccccc3c2ncn1Cc1ccco1,-13.1%
COc1ccccc1OCC(=O)Nc1cccc(-c2nc3ccccc3o2)c1,-22.6%
CN(CC(=O)Nc1nc2ccccc2s1)S(=O)(=O)c1ccccc1,-1.6%
COC(=O)c1ccc(CSc2nnc(-c3c[nH]c4ccccc34)n2C)o1,-9.3%

# Grouped by structure: those above with fluorine
SMILES,HPGD block
CCOC(=O)C1=C(C)OC(N)=C(C#N)C1c1cncc(-c2ccc(F)cc2)c1 (centres undefined),-9.8%
O=C(Oc1ccccc1)N1CCN(c2ccc(F)cc2)CC1,-13.2%
O=C(Nc1cccc(Cl)c1Cl)c1cc(S(=O)(=O)NCCc2ccccc2)ccc1F,-22.0%
CC(=O)N(C)c1ccc(NC(=O)C(F)(F)F)cc1,-2.2%

# New compounds follow
SMILES,HPGD block
NNC(=O)CNC(=O)c1ccccc1F,-9.5%
CC1=C(c2ccc(Cl)cc2)[N+](=O)C(C)(C)N1[O-],-17.7%
Clc1ccc(OCc2nn3c(-c4ccncc4)nnc3s2)cc1,-26.9%
CNC1(C)C2CCC(C2)C1(C)C (centres undefined),-7.9%
O=C(Nc1cccnc1)c1ccc(COc2ccccc2Br)o1,?
CCN(CC)C(=O)CSc1nnc(-c2ccccn2)n1-c1ccc(C)c(C)c1,-3.3%
Cc1ccc(N2CCN(S(=O)(=O)N(C)C)CC2)c(C)c1,-11.2%
Cc1ccccc1NC(=O)CN1CCC(NC(=O)Nc2ccccc2)CC1,-2.6%
N#Cc1ccsc1NC(=O)CN(Cc1ccccc1)Cc1ccccc1,-8.0%
COCCn1nnnc1C(c1cccc(C#N)c1)N1CCCCCC1 (centres undefined),4.8%
Cc1nnc(NC(=O)c2ccc(S(=O)(=O)N(C)Cc3ccccc3)cc2)o1,-9.4%
CCCCN(C)C(=O)c1cc2cc3ccc(OC)cc3nc2s1,?
Cc1ccc(-n2ccnc2SCC(=O)O)c(C)c1,-5.9%
CCc1cccc2nc3c(c([Si](C)(C)C)c12)Cn1c-3cccc1=O,?
N#C/C(=C1/CCCCCN1)c1nc2ccccc2[nH]1,-26.0%
CCOCC(=O)Nc1c(C(=O)Nc2ccccc2OC)oc2ccccc12,?
CC(C)(C)c1nc(CN2CCOCC2)cc(CN2CCOCC2)c1O,3.6%
O=C(NCc1ccc(F)cc1)C1CCN(C(=O)NCc2ccccc2)CC1,-6.6%
CCC1CCCCN1C(=O)CSc1nc(N)c(NC(=O)c2ccco2)c(=O)[nH]1 (centres undefined),-9.0%
CCOc1ccccc1C(=O)OCC(=O)Nc1ccc(N2CCCCC2)cc1,-23.4%
CC/C(=N\NC(=O)c1cc(C)nc2ccccc12)c1ccc(C)s1,-9.1%
COc1ccccc1NC(=O)CN(Cc1ccco1)C(=O)c1ccc(-n2nc(C)cc2C)cc1,-11.1%
CC(c1ccccc1)N1CC(C(=O)N2CCN(c3ccc(F)cc3)CC2)CC1=O (centres undefined),-13.9%
C/[N+]([O-])=C\c1coc2ccccc2c1=O,-9.2%
NNC(=O)[C@@H]1C[C@@H]1c1ccccc1,-4.4%
Cc1ccc2cc(/C=C3\N=C(c4ccccc4)OC3=O)c(N3CCOCC3)nc2c1,-15.7%
COc1ccc(/C=C(/NC(=O)c2ccccc2)c2nc3ccccc3[nH]2)cc1OC,?
COc1ccccc1/C=C/C(=O)OCCN1CCOCC1,?
c1ccc(N2CCN(c3nc(NCc4ccco4)c4ccccc4n3)CC2)cc1,-17.3%
COc1nc(OC)nc(N2CCC(C(=O)NC3CCCCCC3)CC2)n1,-5.9%
CCn1c2ccccc2c2cc(NC(=O)c3cc(OC)c(OC)c(OC)c3)ccc21,?
O=C(CCNC(=O)c1ccco1)NCc1ccccc1,-4.4%
Cc1cc(NC(=O)CSC2=Nc3ccccc3C3=NC(Cc4ccccc4)C(=O)N23)n[nH]1 (centres undefined),-16.3%
CC(C)(C)C1CCc2onc(C(=O)N3CCOCC3)c2C1 (centres undefined),-16.2%
Cc1cccc(OCCn2c(S(=O)(=O)O)nc3ccccc32)c1,-6.4%
COC(=O)c1ccc(CSc2nnc(C)n2N)o1,-7.5%
C=CCn1c(=NC(=O)CN2C(=O)CCC2=O)sc2cc(S(N)(=O)=O)ccc21,-14.8%
COc1ccc(C(C(=O)NC2CCCCC2)N(C(=O)c2sc(C)nc2C)c2ccc(C(C)=O)cc2)cc1 (centres undefined),-6.7%
CC1(C)Cc2c(sc3nc(-c4ccccc4)oc(=O)c23)CO1,?
Cc1ccc(OCC(=O)N/N=C2/SCC(=O)N2Cc2ccccc2)cc1,-8.9%
O=c1oc2ccccc2c(O)c1/C=N/c1ccccn1,-28.6%
COc1ccccc1Cn1c(=S)[nH]c2cc(C(=O)N3CCN(C)CC3)ccc2c1=O,-22.2%
O=C(Nc1cccc(F)c1)N1CC2(CCN(C(=O)c3cccc(F)c3)CC2)C1,-3.8%
Cc1nnc(OC(C)C)c2nn(-c3ccccc3F)c(C)c12,-3.5%
COc1cccc(/C=C/C(=O)OCC(=O)N2c3ccccc3NC(=O)C2(C)C)c1,-19.5%
O=[N+]([O-])c1cc(C(F)(F)F)ccc1N1CCN(S(=O)(=O)c2ccc3c(c2)CCCC3)CC1,-1.7%
COc1cccc(OC)c1C(=O)N1CCN(Cc2ccncc2)CC1,-3.0%
CCOC(=O)C1CCN(C(=O)CC(C)c2ccccc2)CC1 (centres undefined),-10.9%

# Quoted at random: 3 compounds from above, in no set order.
SMILES,HPGD block
COc1ccccc1Cn1c(=S)[nH]c2cc(C(=O)N3CCN(C)CC3)ccc2c1=O,-22.2%
Cc1ccc(OCC(=O)N/N=C2/SCC(=O)N2Cc2ccccc2)cc1,-8.9%
CC1(C)Cc2c(sc3nc(-c4ccccc4)oc(=O)c23)CO1,?

# Further entries.
SMILES,HPGD block
NC1(C(=O)O)CCC1,4.2%
COc1cccc(C2CC3(CC(C)(C)NC(=S)N3)Oc3cc(O)ccc32)c1 (centres undefined),-10.4%
COc1cc(C(=S)N2CCCC2)cc(Cl)c1O,-12.0%
O=C(CCn1ccc2ccccc21)NC1CCCc2ccccc21 (centres undefined),1.1%
Cc1cc2cc(CNC(=S)Nc3ccc(OC(F)F)cc3)ccc2n1C,-4.0%
O=c1ccc2ccccc2o1,-2.1%&-11.7%&-14.2%
CCOC(=O)c1cc2c(nc1NC(=S)Nc1ccccc1)CC(C)(CC)OC2 (centres undefined),-8.5%
COc1cccc(-n2c(SCC#N)nnc2-c2cnccn2)c1,-13.9%
NCCSS(=O)(=O)CCN,?
Cn1c(=O)oc2cc(S(=O)(=O)N3CCCC(C(=O)N4CCc5ccccc5C4)C3)ccc21 (centres undefined),-8.5%
O=C(CNC(=O)c1ccccc1)N/N=C/c1cn[nH]c1-c1ccccc1,-21.0%
Cc1ccccc1NS(=O)(=O)c1cc(C(=O)NCCC2=CCCCC2)ccc1Cl,4.9%
O=C1/C(=C/c2ccco2)CCc2ccccc21,-7.1%
CCCCNC(=O)C1CC(=O)N(C2CCCCC2)C1 (centres undefined),-14.4%
CCOC(=O)CSc1ccc(S(=O)(=O)N2CCCCC2)cc1[N+](=O)[O-],-6.9%
COC(=O)c1ccccc1NC(=O)c1cc(-c2ccc(O)cc2)on1,-9.6%
CCC(C)(C)n1nnnc1CN(Cc1ccco1)Cc1cc2cc3c(cc2[nH]c1=O)OCO3,?
O=C1OC2CC3CC1CC(O)(C3)C2 (centres undefined),-19.5%
CC(Oc1cc(C(F)(F)F)cc(C(F)(F)F)c1)C(=O)NC(N)=O (centres undefined),-16.7%
CCN(CC)CCN=C1CCCc2ccccc2N1,-12.4%
CCOc1cc(CN2CCN(C(=O)c3ccco3)CC2)ccc1OC,-10.2%
Cc1ccc(OCC(=O)NNC(=O)C2CCN(c3ncccn3)CC2)cc1,-13.4%
CCc1cc2c(=O)n3c(nc2s1)-c1[nH]c2ccc(OC)cc2c1CC3,-13.1%
Cc1noc(/C=C/c2ccco2)c1S(=O)(=O)N1CCC(C(=O)NC(C)c2ccccc2)CC1 (centres undefined),-10.1%

# Four of these compounds in another layout.
HPGD block	SMILES
-11.1%	COc1ccccc1NC(=O)CN(Cc1ccco1)C(=O)c1ccc(-n2nc(C)cc2C)cc1
-2.1%	Cc1ccc(NCc2nnc(SCCN3CCCCC3)n2CC2CCCO2)cc1Cl (centres undefined)
-4.4%	NNC(=O)[C@@H]1C[C@@H]1c1ccccc1
25.1µM*	COc1ccc(NC(=O)CSc2ccccn2)cc1

# This is a subset; rates above refer to the full screens.
